# Assay outcomes (PubChem BioAssay)
# Biofilm kill mix – mixture kills Candida albicans biofilm cells; C. albicans biofilm persisters + clotrimazole, fluorescence viability; primary screen in compound mixtures of four per well; inhibition, % at 7.6 µM; actives 0.02% (n = 120,000); AID 1242;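 active = inhibition above 30.3% in the primary screen of four-compound pools, then above 30% when the compound was retested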;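 also: compounds exposed to preformed 24 h biofilms for 48 h; the number belongs to the whole pool; some results filed as inactive read as strong as hits; inactives centre near 12; 0% = biofilm with clotrimazole alone and 100% = kill control; retested singly at about 60 µM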
#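 System: C. albicans CAF4-2 wild-type biofilms; Medium: RPMI/MOPS medium, pH 7.0; Reagent: Clotrimazole, 50 µg/mL; Times: biofilm formation 24 h, compound exposure 48 h, 37 °C; Detection: 2-h Alamar Blue fluorescence, 535/590 nm excitation/emission; Evaluation: percent inhibition of biofilm viability.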
# An asterisk follows results filed as active. Not all compounds are listed; rates above refer to the full screens.
SMILES,Biofilm kill mix
COc1ccc(-c2cc(C(=O)OCC(=O)N(C)C3CCS(=O)(=O)C3)c3ccccc3n2)cc1OC (stereo unspecified),16.0
CC(=O)N/N=C/C1=CCC2CC1C2(C)C (stereo unspecified),12.8
COc1ccc(Cl)cc1C(=O)NNC(=O)c1cccc([N+](=O)[O-])c1,28.4
CCn1nc(C)c(CNCc2cn[nH]c2-c2cc3ccccc3o2)c1C,21.2
CC(=O)c1ccc(NC(=O)C(C)OC(=O)C(C)Oc2cccc(C)c2)cc1 (stereo unspecified),12.4
CCOC(=O)NCc1ccc(S(=O)(=O)Nc2ccc(C)cc2)cc1,3.1
O=C(CSc1nnnn1-c1cccc(Cl)c1)Nc1ccc2c(c1)CCC2,9.1
CN(C)c1nc(N(C)C)nc(N(C#N)CN2C(=O)c3ccccc3C2=O)n1,13.8
S=C(Nc1ccc2nc(-c3ccccn3)c(-c3ccccn3)nc2c1)N1CCCCCC1,23.8
COc1ccccc1NS(=O)(=O)c1cccc(NC(=O)NC2CCCCC2)c1,5.2
Cc1cccc(NC(=O)c2c(C)nn(-c3ccccc3)c2Cl)c1,28.2
COc1cc(Cl)c(C)cc1NC(=O)c1ccc2c(SCC(=O)O)c3c(nc2c1)CCCC3,15.5
CSc1ccccc1NC(=O)CN(C)CC(=O)Nc1ccccc1N1CCOCC1,16.7
CN(Cc1cccs1)C(=O)CCCc1c[nH]c2ccccc12,14.5
Cc1cc(C(=O)NC(=S)Nc2ccccc2N2CCCC2)ccc1[N+](=O)[O-],9.5
COC(=O)c1ccccc1NC(=O)COc1ccccc1[N+](=O)[O-],17.5
O=C(c1sc2ccccc2c1Cl)N1CCN(c2ncccn2)CC1,14.3
COCCNCCCCSc1ccc(Cl)cc1,12.9
CCC(=O)Nc1ccc(Cl)c(NC(=O)c2ccccc2OC)c1,0.1
Cc1c(C(=O)Nc2ccccc2C(=O)N2CCCC2)cccc1[N+](=O)[O-],3.9
CCc1ccc(NC(=O)C2CCCN(S(C)(=O)=O)C2)cc1 (stereo unspecified),13.5
Cc1ccc(S(=O)(=O)Nc2ccc(C(=O)OCC(=O)N(CCC#N)c3ccccc3)cc2)cc1C,11.9
COc1ccc(C(C(=O)NC(C)(C)C)N(C(=O)Cn2nnc3ccccc32)c2ccc(C(C)=O)cc2)cc1O (stereo unspecified),15.0
Cc1ccc2[nH]c3c(c2c1)SC(C)(C)CC3=O,13.5
Cc1ccccc1N1CCN(C(=S)c2ccccc2)CC1,9.9
C[C@H](NC(=O)c1nc[nH]c1C(=O)N[C@@H](C)C(=O)OC(C)(C)C)C(=O)OC(C)(C)C,13.3
Cc1ccc(N2C(=O)N(CC(=O)NCc3ccccc3Cl)C(=O)C2C)cc1 (stereo unspecified),-0.9
CCN(CC)CCOC(=O)c1ccc(NC(=O)c2cn(-c3ccccc3)nc2-c2cccs2)cc1,8.6
COCCNC(=O)c1sc2ncn(CC(=O)Nc3ccc(C)c(Cl)c3)c(=O)c2c1C,2.9
O=C(O)CCCCCN1C(=O)C2CCCCC2C1=O (stereo unspecified),14.4
CCCC1(c2ccccc2)NC(=O)N(CC(=O)Nc2cc(C)on2)C1=O (stereo unspecified),13.8
COc1cccc(C(=O)NNc2nc(C)cc(C)n2)c1,11.0
O=C(CCC(=O)N1CCN(S(=O)(=O)c2ccc(Cl)cc2)CC1)Nc1cccc(Br)c1,8.9
COc1ccc(C(=O)Nc2cc(C)nn2-c2nc3ccccc3[nH]2)c(OC)c1,8.9
CC12C(=O)N(c3ccccc3)C(=O)C1C(c1ccccc1)N1CCCN12 (stereo unspecified),12.7
C=CCNC(=O)COc1ccc(N(C)S(=O)(=O)c2ccc(NC(C)=O)cc2)cc1,1.6
COc1ccc(Cl)cc1C(=O)NNC(=O)C1COc2ccccc2O1 (stereo unspecified),1.5
COc1cc(C2C3=C(CCCC3=O)Nc3[nH]n(-c4ccccc4)c(=O)c32)cc(OC)c1OC (stereo unspecified),-2.2
CCNc1ccc(C(=O)OCC)cc1NC(=O)c1cccc(S(=O)(=O)N(C)c2ccccc2)c1,13.2
COc1ccc(N=C2SC(C(=O)N3CCN(c4ccccc4)CC3)CC(=O)N2C)cc1 (stereo unspecified),13.9
Cc1ccc(SCc2cc(=O)[nH]c(/N=C(\N)Nc3cccc4ccccc34)n2)cc1,4.0
Brc1ccc(C2=Nc3cccc4cccc(c34)N2)o1,13.7
COC(=O)c1ccc(S(=O)(=O)N2CCCCCC2)n1C,23.1
Cc1cc(C[n+]2ncsc2N)c2ncccc2c1,14.3
Cc1ccc2cc(CN(Cc3ccco3)C(=S)NCC3CCCO3)c(=O)[nH]c2c1C (stereo unspecified),13.5
Cc1sc2ncnc(N3CCC(C)CC3)c2c1C,11.2
O=C(NCc1ccc(F)cc1)C(Cc1ccccc1)n1cccc1 (stereo unspecified),9.5
CCCCC1=NN(C(=O)c2cocc2C)C(O)(C(F)(F)F)C1 (stereo unspecified),15.6
CCN(CC)C(=O)CSc1nnc(-c2ccccc2)c(-c2ccccc2)n1,3.8
NC1=NC[C@H](Cc2ccc(O)cc2)N1CC1CCCCC1,9.8
C/C(=N\N=C(N)N)c1ccc(Cl)cc1Cl,7.2
Cc1nc(N)sc1C(=O)N/N=C/c1ccc([N+](=O)[O-])cc1,17.3
Cc1ccc(-c2nc(NCc3ccco3)c3ccccc3n2)cc1,-2.9
Cn1cc(C(=O)NCc2ccc(F)cc2)cn1,13.5
Cc1ccc(SCc2ccc(C(=O)Nc3cccnc3)cc2)cc1,8.2
COc1ccc(C[C@H]2CN3C(=NC[C@@H]3C)N2CCNC(=O)CCC2CCCCC2)cc1,15.6
CCOc1ccc(/C=C2\SC(=S)N(CC(=O)N(CCO)C(C)(C)C)C2=O)cc1,15.9
COc1cc2c(cc1OC)CN(CC(=O)NC(=O)NC(C)(C)C)CC2,5.5
Cc1ccc(-c2ccc(CCC(=O)O)n2NC(=O)c2ccc([N+](=O)[O-])cc2)cc1,13.9
Cc1cc(N2CCCC(C(=O)Nc3cccc4ccccc34)C2)n2ncnc2n1 (stereo unspecified),13.6

# (list continues)
SMILES,Biofilm kill mix
CCN(Cc1ccccc1)Cc1nnnn1Cc1ccccc1,-2.6
COc1ccc(N2CCN(C(=O)c3nc4nc(C)cc(C)n4n3)CC2)cc1,5.1
O=C(O)C(Cc1ccccc1-c1ccccc1)C(=O)O,15.0
Cc1ccc(NC(=O)C(c2ccc(Cl)cc2)N2CCOCC2)cc1 (stereo unspecified),2.7
O=C(NNC(=S)Nc1ccc(Cl)cc1Cl)C1CC1,3.8
O=C(NC1CCCCC1)c1cc(Cl)nc2ccccc12,10.4
N#Cc1c(N)sc2c1CCN(CCc1ccccc1)C2,14.7
CC(=O)N/C(=C\c1ccccc1)C(=O)Nc1ccc(O)cc1,-5.8
O=C(O)/C=C\C(=O)Nc1ccc(N2CCN(c3ccc(Cl)cc3)CC2)cc1,6.0
O=C(C(c1ccccc1)c1ccccc1)N1CCN(c2ccccn2)CC1,3.5
COc1ccc(-n2cc(CNCCc3cscn3)c(-c3ccccc3Cl)n2)cc1,19.5
COc1cc2cc(CN(CCc3ccccc3C)C(=S)NCCCN3CCOCC3)c(=O)[nH]c2cc1OC,0.6
CN(C)c1cnn(-c2ccccc2)c(=O)c1Cl,5.8
CCS(=O)(=O)N1CCN(Cc2ccc([N+](=O)[O-])cc2)CC1,7.8
COc1ccc(-c2ccc(CCC(=O)O)n2NC(=O)c2ccc(O)cc2)cc1,9.0
Cc1cc(C)nc(N(C#N)CCOc2ccc(Cl)cc2)n1,-2.5
Cc1c(C(=O)NCCCN2CCOCC2)oc2c1C1(CCC2)SCCS1,6.7
CC(=O)Nc1ccc(S(=O)(=O)Nc2ccc3c(c2)C(=O)OC3)cc1,0.6
CCOC(=O)N1CCN(C(=O)C(=O)NN)CC1,15.6
N/C(=N\c1nc(C(F)(F)F)cc(=O)[nH]1)Nc1ccc(Cl)cc1,20.3
CN1C(=O)c2ccc(C(=O)NCc3ccc4c(c3)OCO4)cc2C1=O,5.8
CN(C)/C=C(\C#N)C(=O)Nc1ccccc1,13.9
CCn1c2ccc(F)cc2c2nc3ccccc3nc21,10.6
O=C(N/N=C/c1ccco1)Nc1ccccc1,13.5
Cc1cc(C)c(S(=O)(=O)c2ccccc2C)c(OCCO)n1,18.7
Cc1cccc(NC(=S)Nc2ccc(Cl)c(Cl)c2)c1,-4.8
CCCCc1nnc(NC(=O)CN2C(=O)c3ccccc3C2=O)s1,9.5
Cc1ccsc1C1CC(=O)Nc2ccccc2S1 (stereo unspecified),25.6
COc1ccc(OC)c(/C(C)=N/Nc2ccc(C(=O)O)cc2)c1,9.1
O=C(NCCCNC(=O)c1cncc(O)c1)c1cncc(O)c1,15.4

# The closing four records of the part above are carried over, then new ones follow.
SMILES,Biofilm kill mix
CCCCc1nnc(NC(=O)CN2C(=O)c3ccccc3C2=O)s1,9.5
Cc1ccsc1C1CC(=O)Nc2ccccc2S1 (stereo unspecified),25.6
COc1ccc(OC)c(/C(C)=N/Nc2ccc(C(=O)O)cc2)c1,9.1
O=C(NCCCNC(=O)c1cncc(O)c1)c1cncc(O)c1,15.4
C/C(=N\NC(=O)CC#N)c1cc2ccccc2oc1=O,21.1
Cc1cc(C)n(-c2ccc(C(=O)Nc3ccc(C)c(S(=O)(=O)N(C)C)c3)cc2)n1,16.5
CSc1ncc(Cl)c(C(=O)Nc2ccccc2Cl)n1,22.2
O=C(Nc1ccc(Cl)cc1)Nc1nnc(-c2ccncc2)s1,11.5
O=C1NC(C(=O)O)=CC(c2ccc([N+](=O)[O-])cc2)N1 (stereo unspecified),17.3
CC1(C)CC(=O)C2=C(C1)NC1=C(C(=O)c3ccccc31)C2c1ccc(O)cc1 (stereo unspecified),6.0
Cc1cccc(C(=O)NNC(=O)CN2C(=O)c3ccccc3C2=O)c1,16.8
CCn1ncc(C2=NOC(C(=O)N3CCC(C(N)=O)CC3)C2)c1C (stereo unspecified),14.1
Cc1c(N)c(C(C)(C)C)cc(C(C)(C)C)c1[N+](=O)[O-],13.8
COc1ccc(C2(CNC(=O)c3cccs3)CCOCC2)cc1,15.2
O=C(c1ccc2c(c1)OCO2)N1CCC2(CC1)Oc1ccc(F)cc1C(=O)C21CC(c2cccnc2)=NO1 (stereo unspecified),9.1
Cc1cccc(C)c1NC(=S)N/N=C/c1ccccc1C(=O)O,22.1
O=C(N/N=C/c1cccnc1)c1ccc(Cn2cc([N+](=O)[O-])cn2)o1,16.6
COc1ccc(C(=O)C[n+]2ccc3c(c2)nc(-c2ccccc2)n3C)cc1,16.9
COc1ccc(-n2cc(-c3ccc(OC(F)F)cc3)[n+]3c2CCCCC3)cc1,29.4
COc1ccccc1NC(=S)N(CCc1ccc(OC)c(OC)c1)Cc1ccccn1,20.7
O=[N+]([O-])c1cccc(NC(=S)NCCc2ccccc2)c1,16.8
Cc1ccc(NC(C)C(=O)N/N=C/c2c[nH]c3ccccc23)cc1 (stereo unspecified),2.0
O=C(NC(=S)Nc1ccc(S(=O)(=O)N2CCCC2)cc1)c1cccs1,6.5
CC(NC(=O)CNC(=S)N(Cc1ccccc1)Cc1cccnc1)c1ccccc1 (stereo unspecified),8.6
CN(C1CC(C)(C)NC(C)(C)C1)S(=O)(=O)CC12CCC(CC1=O)C2(C)C (stereo unspecified),9.0
Cc1cccc(C2=NC(C(F)(F)F)(C(F)(F)F)c3c(n(-c4ccc(F)cc4)c(=O)[nH]c3=O)N2)c1,14.9
CC1(C)OC(=O)C(=CNC(=O)c2c(F)cccc2F)C(=O)O1,-13.2
C/C(CC(=O)Nc1ccccc1F)=N\NC(=O)Cc1ccc(Cl)cc1,7.2
COc1ccc2[nH]c(C(=O)N3CCCN(Cc4ccc(F)cc4)CC3)cc2c1,23.1
CCn1c2ccccc2c2cc(NC(=O)c3ccc(=O)oc3)ccc21,-0.1
COc1ccc(N(C(=O)C2COc3ccccc3O2)C(C(=O)NC2CCCCC2)c2ccccc2)cc1OC (stereo unspecified),21.6
Cc1ccc(-c2c[n+](CC(=O)c3ccc(Br)cc3)c3n2CCCCC3)cc1,11.4
CNC(=O)CN1C(=O)NC2(CCc3ccccc3C2)C1=O (stereo unspecified),5.4
Cc1cc(C(=O)Nc2nnc(C(F)(F)F)s2)cs1,18.2

# Pulled one by one from above:
SMILES,Biofilm kill mix
Brc1ccc(C2=Nc3cccc4cccc(c34)N2)o1,13.7
CN(C)c1cnn(-c2ccccc2)c(=O)c1Cl,5.8
O=C(N/N=C/c1cccnc1)c1ccc(Cn2cc([N+](=O)[O-])cn2)o1,16.6
N/C(=N\c1nc(C(F)(F)F)cc(=O)[nH]1)Nc1ccc(Cl)cc1,20.3

# Other entries:
SMILES,Biofilm kill mix
Cc1ccc2nc(N(CCN(C)C)C(=O)c3cc(Cl)sc3Cl)sc2c1,17.9
NC(CSS(=O)(=O)O)=NCCC12CC3CC(CC(O)(C3)C1)C2,-0.8
Cn1c(Cc2ccccc2)nnc1SCC(=O)N1CCCCC1,16.4
CCN1CCN(c2nc3c(C)cccn3c(=O)c2/C=C(\C#N)S(=O)(=O)c2ccc(Cl)cc2)CC1,20.1
O=C(CSc1nccc(-c2cccs2)n1)Nc1ccccc1,15.4
CCNC(=O)COC(=O)c1cc(-c2ccccc2)nn1-c1ccccc1,11.5
CC(=O)NC1C(OCc2ccccc2)OC2COC(C)(C)OC2C1O (stereo unspecified),20.3

# Five compounds from above, arranged by length of the SMILES, low to high:
SMILES,Biofilm kill mix
O=C(CSc1nccc(-c2cccs2)n1)Nc1ccccc1,15.4
CC(=O)NC1C(OCc2ccccc2)OC2COC(C)(C)OC2C1O (stereo unspecified),20.3
NC(CSS(=O)(=O)O)=NCCC12CC3CC(CC(O)(C3)C1)C2,-0.8
Cc1ccc2nc(N(CCN(C)C)C(=O)c3cc(Cl)sc3Cl)sc2c1,17.9
CCN1CCN(c2nc3c(C)cccn3c(=O)c2/C=C(\C#N)S(=O)(=O)c2ccc(Cl)cc2)CC1,20.1
